# Screens from PubChem BioAssay.
# TDP1 cell noCPT = qHTS for Inhibitors of human tyrosyl-DNA phosphodiesterase 1 (TDP1): qHTS in cells in absence of CPT | Potency, µM (highest dose often 46.2 µM), inactives show at the highest dose activity change, negative = growth inhibition, most hits filed as inhibitors | DT40 Tdp1-/- hTDP1 cells, no CPT, ATP luminescence, 48 h | hit rate 15% among 420,000; further: nearly all actives have a fitted effect of over 55% in size
#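 Stably hTDP1-transfected Tdp1-null chicken DT40 cells were treated with library compounds minus camptothecin and grown for at least 48 hr at 37 °C, after which cellular ATP was quantified by luminescence.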
# TDP1 block = blocks human tyrosyl-DNA phosphodiesterase 1. Q9NUW8. recombinant TDP1, AlphaScreen DNA substrate cleavage. Potency, µM (top dose mostly 130 µM), inactives show top-dose activity change, negative = inhibition, usual class: inhibitors. hit rate 0.28% among 350,000. AID 485290; further: nearly all actives have a fitted effect of over 40% in size
# Target sequence (Q9NUW8 whole entry, looked up): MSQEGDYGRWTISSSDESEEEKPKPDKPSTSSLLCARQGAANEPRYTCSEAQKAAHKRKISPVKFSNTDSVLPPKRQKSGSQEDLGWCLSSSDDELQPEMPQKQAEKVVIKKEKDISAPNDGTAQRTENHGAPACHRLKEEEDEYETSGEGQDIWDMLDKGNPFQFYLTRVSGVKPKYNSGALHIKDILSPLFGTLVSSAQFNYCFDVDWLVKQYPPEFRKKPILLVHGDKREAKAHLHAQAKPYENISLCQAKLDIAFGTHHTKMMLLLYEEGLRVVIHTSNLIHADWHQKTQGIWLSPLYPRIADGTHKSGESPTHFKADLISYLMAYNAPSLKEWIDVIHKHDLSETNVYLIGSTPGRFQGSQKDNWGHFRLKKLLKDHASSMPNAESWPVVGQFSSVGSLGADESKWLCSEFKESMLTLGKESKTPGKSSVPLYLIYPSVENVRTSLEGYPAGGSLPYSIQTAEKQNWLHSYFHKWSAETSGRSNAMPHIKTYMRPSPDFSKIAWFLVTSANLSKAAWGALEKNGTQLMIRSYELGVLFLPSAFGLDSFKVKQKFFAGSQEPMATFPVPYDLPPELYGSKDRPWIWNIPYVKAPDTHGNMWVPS
#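 E. coli-derived human Tdp1, 1 nM final. Cpd preinc 15 min RT; substrate 15 nM final, 5 min RT; AS bead mix 10 ug/ml final, 10 min RT. Signal loss = tyrosine-FITC cleavage. No-enzyme wells = max signal.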
# * = called active by the depositor; ? = inconclusive; nt = no result given; & = joins results of further samples; [ ] = remark or other dose. The call rests on the fitted dose curve; in most records, active means well fitted curve in the direction sought with a large enough effect; inconclusive means small, poorly fitted or top-dose-only effect, or another doubt; inactive means no such curve, though single readings can be large; an effect the other way counts as inactive or inconclusive. On the % scale 0 is the no-effect control and ±100 the full control effect; potency means the concentration at half of the fitted maximal effect. This is a subset, and most or all hits are left out here.
# Preview, 5 compounds:
smiles: CC(=O)OC1(c2ccccc2)CCN(C)C(C)C1C (centres undefined)
  TDP1 cell noCPT: -5.6%
  TDP1 block: -5.0%

smiles: CCC1(CC)C(=O)N(C)C(=O)NC1=NC
  TDP1 cell noCPT: 3.2%
  TDP1 block: 4.2%

smiles: CC(CN1CCOCC1)OC(=O)Cc1ccccc1 (centres undefined)
  TDP1 cell noCPT: -1.5%
  TDP1 block: -3.8%

smiles: C=CCOc1ccc(CC2C(=O)N(C)C(=O)N(C)C2=O)cc1
  TDP1 cell noCPT: -6.1%
  TDP1 block: -1.1%

smiles: CC(Cc1ccccc1)NC(=O)/C=C/C(=O)O (centres undefined)
  TDP1 cell noCPT: -5.1%
  TDP1 block: 0.0%

# Main list, repeating the preview:
smiles: CC(=O)OC1(c2ccccc2)CCN(C)C(C)C1C (centres undefined)
  TDP1 cell noCPT: -5.6%
  TDP1 block: -5.0%

smiles: CCC1(CC)C(=O)N(C)C(=O)NC1=NC
  TDP1 cell noCPT: 3.2%
  TDP1 block: 4.2%

smiles: CC(CN1CCOCC1)OC(=O)Cc1ccccc1 (centres undefined)
  TDP1 cell noCPT: -1.5%
  TDP1 block: -3.8%

smiles: C=CCOc1ccc(CC2C(=O)N(C)C(=O)N(C)C2=O)cc1
  TDP1 cell noCPT: -6.1%
  TDP1 block: -1.1%

smiles: CC(Cc1ccccc1)NC(=O)/C=C/C(=O)O (centres undefined)
  TDP1 cell noCPT: -5.1%
  TDP1 block: 0.0%

smiles: Cc1ccc(C)c(NC(=O)CSc2nnc([C@@H](N)Cc3c[nH]c4ccccc34)o2)c1
  TDP1 cell noCPT: 0.1%
  TDP1 block: 2.1%

smiles: CCN(CC)C(=O)N[C@@H]1C[C@@H]2c3cccc4[nH]cc(c34)C[C@H]2N(C)C1
  TDP1 cell noCPT: nt
  TDP1 block: -5.2%[56.1 µM]

smiles: CNC(C(=O)c1ccccc1)C(OC)c1ccccc1 (centres undefined)
  TDP1 cell noCPT: -13.9%
  TDP1 block: 7.8%

smiles: CCN(CC)C(=O)c1ccc(N2C(=O)C3CC=C(Cl)CC3C2=O)cc1 (centres undefined)
  TDP1 cell noCPT: 3.6%
  TDP1 block: 0.0%

smiles: O=c1cccc2n1CC1CNC[C@H]2C1
  TDP1 cell noCPT: 8.4%&-5.7%&-19.7%
  TDP1 block: 1.2%

smiles: CCCCC(=O)N/N=C/c1c(O)n(CC)c(=S)n(CC)c1=O
  TDP1 cell noCPT: 10.3µM*
  TDP1 block: 5.7%

smiles: COC(=O)[C@@H]1C(OC(=O)c2ccccc2)CC2CCC1N2C (some centres undefined)
  TDP1 cell noCPT: ?
  TDP1 block: -0.5%

smiles: Cc1cc(/C=C2\C(=O)NC(=O)N(c3ccc(Br)cc3)C2=O)c(C)n1C
  TDP1 cell noCPT: -1.8%
  TDP1 block: 2.7%

smiles: O=C(Nc1ccc(Cl)cc1C(=O)c1ccccc1)c1ccc(Br)o1
  TDP1 cell noCPT: ?
  TDP1 block: 5.4%

smiles: O=C(C(=O)N1CCOCC1)c1cn(Cc2ccccc2)c2ccccc12
  TDP1 cell noCPT: 4.7%
  TDP1 block: -1.1%

# Entries of single compounds from above. Values in the order: TDP1 cell noCPT	TDP1 block
# `CCC1(CC)C(=O)N(C)C(=O)NC1=NC` as listed: 3.2%	4.2%
# `CCN(CC)C(=O)N[C@@H]1C[C@@H]2c3cccc4[nH]cc(c34)C[C@H]2N(C)C1` as listed: nt	-5.2%[56.1 µM]
